Screening results: PubChem, several laboratories
Hsc70 ATP site: small molecules displacing fluorescent ligand from Hsc70 – biochemical, fluorescence polarization, primary screen (AID 568). 83,000 tested, under 10 active. Hsc70 fluorescence polarization, probe displacement; higher % means a stronger effect; strong numbers were not always called active. one-dose displacement, % at 20 µM; IC50 in µM for titrated hits;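 active = displacement above 50% without optical interference and an IC50 on retest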;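 note: ATPase domain with a fluorescein-tagged ATP probe; 0% = vehicle and 100% = excess ADP; read after one hour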
MT1-MMP reporter: inhibitors of MT1-MMP promoter transcription, cell-based, luciferase reporter, luminescence (AID 618) | calls from a first round at 10 µM; hits with a dose series show EC50 in µM | hit rate 0.62% among 87,000 | MT1-MMP promoter luciferase reporter cells, luminescence;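 active = over half of the reporter light lost at 10 µM or EC50 under 50 µM; inactive = the rest and hits that failed the dose series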;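 note: actives suppress MT1-MMP promoter-driven transcription so potencies describe inhibitors; HT1080 fibrosarcoma cells; overnight exposure; toxic or luciferase-blocking compounds were not removed from the actives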
WNV NS2B-NS3 inh: blocks West Nile virus NS2B-NS3 protease activity | P06935 | WNV NS2B-NS3 protease, fluorogenic substrate Ex360/Em465; active compounds read low | z-score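 (tested at a level between 10 and 100 µM)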 | hit rate 0.18% among 65,000;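 active = z-score at -3 or under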;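 note: score is relative to mean and spread of the compound wells of a plate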
Target sequence (P06935 1371-1501 limits assumed): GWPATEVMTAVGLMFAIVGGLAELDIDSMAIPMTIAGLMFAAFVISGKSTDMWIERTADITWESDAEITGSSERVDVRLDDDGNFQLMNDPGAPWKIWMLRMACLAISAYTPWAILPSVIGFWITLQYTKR
Target sequence (P06935 1502-1679 limits assumed): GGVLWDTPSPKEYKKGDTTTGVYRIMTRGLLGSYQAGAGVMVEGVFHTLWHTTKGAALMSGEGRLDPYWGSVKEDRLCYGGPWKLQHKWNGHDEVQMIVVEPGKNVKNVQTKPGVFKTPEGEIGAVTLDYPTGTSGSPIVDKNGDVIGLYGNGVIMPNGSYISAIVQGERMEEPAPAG
* hit, by the source's call; i = inactive; / = no result given.

#	SMILES	Hsc70 ATP site	MT1-MMP reporter	WNV NS2B-NS3 inh
1	Cc1ccc(S(=O)(=O)N(c2ccccc2)C2CCS(=O)(=O)C2)cc1 (stereo not given)	-0.1%	i	1.6
2	COc1cc2cc(C(c3nnnn3C3CCCC3)N3CCc4ccccc43)c(=O)[nH]c2cc1OC (stereo not given)	-7.2%	i	0.7
3	CCC(C)N(CC(=O)NCc1ccc(OC)cc1)C(=O)c1csnn1 (stereo not given)	0.3%	i	1.2
4	COc1cccc(OCC(=O)N(Cc2nc(-c3ccc(Cl)cc3)no2)C(C)C)c1	3.7%	i	0.13
5	COc1ccc(S(=O)(=O)N(CC(=O)N2CCCC2)Cc2ccccc2)cc1	-1.6%	i	0.33
6	O=S(=O)(NCc1ccco1)c1cccc(S(=O)(=O)N2CCOCC2)c1	1.0%	i	0.39
7	N#Cc1ccc2ccn(CC(=O)NC3CCCCCC3)c2c1	-4.8%	i	0.21
8	CC(C)(C)NC(=O)NC(=O)COC(=O)c1ccco1	2.8%	i	0.11
9	Cc1ccc(NC(=O)CCN2C(=O)c3ccncc3C2=O)cc1	-6.6%	i	-0.32
10	Cc1csc2nc(CNC(=O)CCC(=O)O)cn12	-6.8%	i	-0.79
11	CN=C1SC(CC(=O)Nc2cccc(C(F)(F)F)c2)C(=O)N1C (stereo not given)	1.4%	i	0.21
12	CCc1ccc(S(=O)(=O)NCc2cn3ccccc3n2)s1	0.1%	i	-1.6
13	Nc1nc(SCc2ccccc2)ns1	3.4%	i	1.2
14	O=S(=O)(NCCN1CCCC1)c1cccc2cccnc12	4.9%	i	0.82
15	COc1cccc(CN(CC2CCCO2)S(=O)(=O)c2ccc(S(=O)(=O)NCC3CCCO3)cc2)c1OC (stereo not given)	5.5%	i	/
16	O=C(Nc1ccccc1)Nc1nccs1	-1.1%	i	/
17	COCCCNC(=O)CN1C(=O)c2ccccc2C1=O	-3.7%	i	-0.76
18	CC(C)OC(=O)CSc1nc2ncc(Cl)cc2[nH]1	-0.6%	i	1.1
19	CCc1c(C)nc2ncnn2c1N1CCCC(C(=O)NCc2ccc3c(c2)OCO3)C1 (stereo not given)	-10%	i	2.1
20	CCCNS(=O)(=O)c1ccc(CCC(=O)NCc2ccc3c(c2)OCO3)cc1	-3.5%	i	-1.1

#	SMILES	Hsc70 ATP site	MT1-MMP reporter	WNV NS2B-NS3 inh
21	Cc1cccc(NC2=NC3(CCCCC3)N=C(N)N2)c1	-2.2%	i	-0.91
22	Cc1cc(N)ccc1NC(=O)c1ccccc1	-2.0%	i	-0.1
23	O=C(CCCCCn1c(=S)[nH]c2cc3c(cc2c1=O)OCO3)N1CCN(C2CCCCC2)CC1	-3.0%	i	0.03
24	C=CCOC(=O)C1=C(C)NC(SCC(=O)N(CC)CC)=C(C#N)C1c1ccccc1 (stereo not given)	-7.7%	i	1.2
25	CCOc1ccc(Cn2c(O)cc(=O)[nH]c2=O)cc1	-14%	i	-1.3
26	COc1ccc(N(CC(=O)N2CCN(c3ccccc3)CC2)S(=O)(=O)c2c(C)noc2C)cc1	-2.4%	i	-2.6
27	Cc1ccc(CC2CC(=O)N(c3ccc(Cl)cn3)C2=O)cc1 (stereo not given)	5.8%	i	-1.1
28	Cc1ccccc1Cn1c(C(C)O)nc2ccccc21 (stereo not given)	-7.3%	i	-0.42
29	CN(C)CCCNC(=O)c1ccc2[nH]c3ccccc3c2c1	4.3%	i	-0.0016
30	COc1cccc(C(=O)N2CCN(Cc3ccc4c(c3)OCO4)CC2)c1OC	0.8%	i	1.1
31	COC(=O)CCC(=O)COc1ccc(OC)cc1C#N	-5.1%	i	-0.71
32	COc1ccccc1NC(=O)CN1CCN(CC(=O)Nc2ccc(F)cc2)CC1	1.9%	i	0.33
33	Nc1ccc(CCS(N)(=O)=O)cc1	-5.6%	i	-0.87
34	CC(C)(C)C1CCc2c(sc3nc(SCC(N)=O)nc(N)c23)C1 (stereo not given)	-4.2%	i	/
35	O=C(NCCCN1CCCC1=O)c1ccc2c(=O)n(Cc3ccco3)c(=S)[nH]c2c1	0.8%	i	1.3
36	CCCCN(C)S(=O)(=O)c1ccc(C(=O)Nc2nnc(-c3cccs3)o2)cc1	2.5%	i	0.75
37	CCOc1ccc(NC(=O)CCC(=O)O)cc1	3.5%	i	/
38	CC(OC(=O)CN1C(=O)C2CCCCC2C1=O)C(=O)Nc1ncc(Cl)cc1Cl (stereo not given)	-2.2%	i	/
39	CCCCNC(=O)NS(=O)(=O)c1ccc(C)cc1	-0.9%	i	-1.9
40	CCCc1[nH]nc2c1C(CCC)C(C#N)=C(N)O2 (stereo not given)	-6.2%	i	-0.4

#	SMILES	Hsc70 ATP site	MT1-MMP reporter	WNV NS2B-NS3 inh
41	CC1CCC2(CC1)NC(=O)c1ccccc1O2 (stereo not given)	2.4%	i	-2.1
42	Cc1ccc(OCCn2c(Br)nc3c2c(=O)n(C)c(=O)n3C)cc1	-2.1%	i	/
43	COc1cccc(-n2nnc3c(=O)n(CC(=O)OCc4ccccc4)cnc32)c1	1.8%	i	-0.38
44	Cc1cc(NC(=O)c2cc(-c3ccco3)on2)no1	-9.8%	i	-1.3
45	COC(=O)c1ccc(=O)n(Cc2ccco2)c1	1.3%	i	0.32
46	Cc1cc2n(n1)C(c1ccccc1Cl)Nc1ccccc1-2 (stereo not given)	2.1%	i	-1.1
47	Cc1cccc(OCc2nnc(NC(=O)Cc3cccs3)s2)c1	-4.5%	i	/
48	CCOCCCN(C(=O)CNC(=O)c1ccco1)C(C(=O)NC1CCCC1)c1ccccc1C (stereo not given)	-1.9%	i	-1.2
49	CS(=O)(=O)N(CC(=O)NC1CC2CCC1C2)c1cccc(C(F)(F)F)c1 (stereo not given)	-1.6%	i	0.49
50	CCC(C)SCc1nc2ccccc2[nH]1 (stereo not given)	-0.6%	i	2.6
51	CN(C)S(=O)(=O)c1ccc(Oc2ccc(S(=O)(=O)N(C)C)cc2)cc1	2.1%	i	-0.2
52	CCOC(=O)Nc1cccc(OCC(=O)Nc2ccccc2OC)c1	-5.6%	i	0.29
53	Cc1ccc2c(c1)[C@@H]1CN(C)CC[C@@H]1N2S(=O)(=O)c1ccc(F)cc1	0.5%	i	-0.02
54	Cc1nc(CNS(=O)(=O)c2ccccc2F)cs1	2.3%	i	-0.0093
55	COC(=O)c1cc(Br)c(=O)n(-c2cccc(F)c2)c1	-0.3%	i	/
56	CCOC(=O)c1sc(Nc2cccc(C)c2C)nc1C	2.6%	i	/
57	O=C1CCc2cc(S(=O)(=O)NC(C(=O)NCc3cccnc3)c3ccccc3)ccc2N1 (stereo not given)	1.0%	i	0.6
58	O=C1N/C(=N/N=C/c2ccccc2)SC1(c1ccccc1)c1ccccc1	1.6%	i	/
59	CCn1cc(C(=O)N2CCCCC2)c(=O)c2cc(S(=O)(=O)N3CCC(C)CC3)ccc21	7.0%	i	0.41
60	O=S(=O)(c1ccc(Br)s1)N1CCCCC1	4.2%	i	0.66

#	SMILES	Hsc70 ATP site	MT1-MMP reporter	WNV NS2B-NS3 inh
61	Cc1cc(-c2ccccc2)nc(N(C)NC(=O)c2c(F)cccc2F)c1S(C)(=O)=O	-0.3%	i	/
62	COC(=O)c1ccc(Cn2nc(C)c(Br)c2C)cc1	-6.2%	i	0.93
63	O=C(NCc1ccco1)c1cccc(S(=O)(=O)N2CCOCC2)c1	1.7%	i	-0.28
64	O=C(Cc1ccccc1)N1CCCC(c2nc(-c3cccs3)no2)C1 (stereo not given)	-3.6%	i	0.29
65	C=C(Cl)COC(=O)[C@H]1C2C=CC(C2)C1C(=O)O (stereo not given in full)	0.7%	i	0.96
66	Cc1nn(C)c(C)c1N=Cc1c(O)ccc2ccccc12	-20%	i	-0.84
67	CCn1c2ccccc2c2nnc(SCC(=O)NC(CC(C)C)C(=O)OC)nc21 (stereo not given)	-3.8%	i	-0.02
68	C/C(=N\NC(=O)CC1N=C(Cc2ccccc2)NNC1=O)c1ccc(Cl)cc1Cl (stereo not given)	6.9%	i	/
69	Cc1nc2nc(-c3ccco3)[nH]n2c(=O)c1C	0.7%	i	/
70	CCc1nn(CC(=O)NCCCN(CC)Cc2ccccc2)c(=O)c2cc3sccc3n12	-4.2%	i	0.55
71	O=C1c2ccccc2NC(c2cccc(F)c2)N1Cc1ccco1 (stereo not given)	4.1%	i	0.71
72	CC/C(=N/Nc1ccccc1Cl)c1cnnc(-c2ccccc2)n1	0.1%	i	/
73	O=C(COc1ncnc2sccc12)N1CCc2ccccc2C1	-1.7%	i	-0.94
74	COC(=O)Nc1ncc(CN2CCc3ccccc3C2)s1	-0.5%	i	-0.18
75	CCOC(=O)C(NC(=O)Nc1ccc(F)cc1)(OCC)C(F)(F)F (stereo not given)	1.2%	i	2
76	Cc1ccc(N=C2CCCCCN2C)c(C#N)c1	1.1%	i	/
77	C=C(C)CSc1nc2ncc(Cl)cc2[nH]1	1.8%	i	/
78	O=C(Nc1cccnc1Cl)C1c2ccccc2Oc2ccccc21	-1.2%	i	/
79	CCOC(=O)c1c(N)nn(C(=O)CC)c1-c1ccccc1	-14%	i	-0.36
80	CCCOC(=O)C1C2C=CC3(CN(c4cccc(Cl)c4)C(=O)C13)O2 (stereo not given)	2.6%	i	-0.46

Entries of single compounds from above:
`O=C(Cc1ccccc1)N1CCCC(c2nc(-c3cccs3)no2)C1` (stereo not given) as listed: Hsc70 ATP site = -3.6%; MT1-MMP reporter = i; WNV NS2B-NS3 inh = 0.29
`C=C(Cl)COC(=O)[C@H]1C2C=CC(C2)C1C(=O)O` (stereo not given in full) as listed: Hsc70 ATP site = 0.7%; MT1-MMP reporter = i; WNV NS2B-NS3 inh = 0.96

Compounds 77 to 80 from above:
#	SMILES	Hsc70 ATP site	MT1-MMP reporter	WNV NS2B-NS3 inh
77	C=C(C)CSc1nc2ncc(Cl)cc2[nH]1	1.8%	i	/
78	O=C(Nc1cccnc1Cl)C1c2ccccc2Oc2ccccc21	-1.2%	i	/
79	CCOC(=O)c1c(N)nn(C(=O)CC)c1-c1ccccc1	-14%	i	-0.36
80	CCCOC(=O)C1C2C=CC3(CN(c4cccc(Cl)c4)C(=O)C13)O2 (stereo not given)	2.6%	i	-0.46

Next section:
#	SMILES	Hsc70 ATP site	MT1-MMP reporter	WNV NS2B-NS3 inh
81	O=C(NCC(=O)N(Cc1cccs1)C(C(=O)NC1CCCCC1)c1cccnc1)c1ccco1 (stereo not given)	2.3%	i	/
82	COC(=O)c1ccccc1NC(=O)C1CCN(S(=O)(=O)c2cc(C)ccc2OC)CC1	0.1%	i	1.1
83	CC(=O)Nc1nc(=O)c2ccccc2s1	6.7%	i	1.4
84	CCCn1c(SCc2nc(-c3cccs3)no2)nnc1-c1ccncc1	3.3%	i	-1
85	O=C(O)CCC(=O)Nc1ccc(N2CCCCCC2)cc1	0.8%	i	-0.04
86	COCCn1c(SCC(=O)Nc2nnc(C)s2)nnc1-c1cc2ccccc2cc1O	0.6%	i	-0.34
87	Cn1c(=O)[nH]c(=O)c2c1nc(CN1CCOCC1)n2CCCc1ccccc1	6.2%	i	-0.48
88	CC(C)Cn1c(-c2ccc(Cl)cc2)cnc1SCC(=O)N1CCOCC1	7.4%	i	-1
89	CCC(Oc1ccccc1)C(=O)N1CCN(CC)CC1 (stereo not given)	-0.2%	i	/
90	Nc1nc(C2CC2)c(Sc2sc(N)nc2C2CC2)s1	-1.6%	i	-0.86
91	CC(C)CC1NC(=O)N(CC(=O)N2CCN(S(=O)(=O)c3ccccc3)CC2)C1=O (stereo not given)	-2.4%	i	/
92	CCCNC(=O)Nc1ccc2c(c1)nc(C)n2C	0.8%	i	/
93	Cc1ccc(OCC(=O)Nc2ccc(O)c(-c3nc4ccccc4o3)c2)cc1	-8.5%	i	-0.72
94	CCCc1[nH]nc2c1C(c1cccnc1)C(C#N)=C(N)O2 (stereo not given)	1.7%	i	1.2
95	Cc1ccc(S(=O)(=O)n2ccnc2)cc1C	5.2%	i	-0.21
96	Cc1cc(C)n(-c2nc3ccccc3n3cnnc23)n1	0.2%	i	-0.65
97	COc1ccc(C2CC(C(F)(F)F)n3ncc(C(=O)O)c3N2)cc1OC (stereo not given)	-1.9%	i	-0.52
98	N#Cc1nc(-c2ccc(OCc3ccccc3)cc2)oc1NCCN1CCOCC1	-0.8%	i	-0.38
99	Cc1nn2cc(-c3ccccc3)nc2[nH]c1=O	4.6%	i	/
100	O=S(=O)(c1cccc2ccccc12)n1nnc2ccccc21	1.7%	i	/

#	SMILES	Hsc70 ATP site	MT1-MMP reporter	WNV NS2B-NS3 inh
101	CCOC(=O)Cc1cnc(NC(=O)Cn2nnc(-c3ccc(OCC)cc3)n2)s1	4.9%	i	-0.05
102	O=S(=O)(c1ccc(S(=O)(=O)N2CCCC2)cc1)N1CCCCCC1	0.5%	i	0.31
103	CCOC(=O)Cc1csc(NC(NC(=O)CC)(C(F)(F)F)C(F)(F)F)n1	2.2%	i	-1.1
104	COc1ccc(-c2noc(CN3CCCCC3)n2)cc1OC	-1.2%	i	/
105	COc1ccc2cc3cc(C(=O)NCCc4ccc(OC)c(OC)c4)oc3nc2c1	-5.0%	i	0.65
106	COC1CCCCC1Nc1cccc(SC)c1 (stereo not given)	-1.3%	i	-0.18
107	Cn1c2c(c(=O)n(C)c1=O)C(c1cccc(Br)c1)C1C(=O)c3ccccc3C1=N2 (stereo not given)	0.4%	i	-0.53
108	COc1c(N2CCNC(C)C2)c(F)cc2c(=O)c(C(=O)O)cn(C3CC3)c12 (stereo not given)	0.9%	i	1.5
109	O=C(Nc1ccc(-c2nc3ncccc3o2)cc1)c1ccco1	-1.7%	i	1.4
110	COc1ccc(N(CC(=O)NCC2CCCO2)C(=O)CCC(=O)Nc2nccs2)cc1 (stereo not given)	-2.2%	i	/

A portion of the library, so the mix of outcomes need not match the whole.
